HIV Env fusion: blocks HIV Env-driven cell-cell fusion; HeLa-JRFL Env/CEM21 cell fusion, luciferase; inhibition, % at 12.3 µM; 1.1% of 360,000 active; AID 651610;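 active means mean replicate inhibition score of at least 50 and every replicate individually at or above 50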;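 further: 0% = plate neutral controls and 100% = maraviroc near 300 nM; one replicate is shown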
MT1-MMP act inh: MT1-MMP (human) activation inhibition. 0.061% of 360,000 active. GFP/RFP ratio change, % at 20 µM. AID 651647. HT1080 RFP-PRO-GFP cells, GFP/RFP ratio fluorescence, overnight; percent of plate control window, DMSO zero;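 active means GFP/RFP ratio change of at least 30% with cell ATP level not reduced by more than half and red fluorescence within 50% of control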; further: strong numbers were not always called active
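Assay system: HT1080 cells carrying an RFP-PRO-GFP reporter | Dosing: Single dose of 20 µM compound, 1% DMSO final | Incubation: Cells overnight before dosing, compound overnight, 37 °C, 5% CO2 | Evaluation: GFP/RFP fluorescence ratio | Control set: DMSO and RFP-L50D-GFP cell wells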
UUG fidelity: modulators of start codon recognition fidelity in yeast. S. cerevisiae UUG-firefly luciferase reporter, luminescence/redox ratio. activity score, % at 18.7 µM. 0.13% of 350,000 active. AID 602363;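 active means replicate mean at a twofold rise or more, about +100% in these data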;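 further: firefly luciferase made from a UUG start codon reports start codon fidelity; reporter light over untreated wells divided by growth signal over untreated wells; some hits fall short of that in this replicate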
CSC inhib: cancer stem cell inhibition. cancer stem cell-like cells viability, luminescence. inhibition, % at 7.5 µM. 1.1% of 300,000 active;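 active means mean at 75% or more and at least half the replicates too; tested in HMLE shEcad cells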;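 further: 0% = median of negative and 100% = median of positive control wells; the first replicate is given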
PABP polyA inh: PABP-poly(A) binding inhibition; P11940; PABP-poly(A) RNA binding, fluorescence polarization; inhibition, % at 35 µM; 1% of 290,000 active; AID 2014;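 active means 50% or more with normal probe brightness, or confirmed in later tests; about a fifth of its hits are not listed in these tables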;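 further: calls also rest on retests at 20 µM and on dose response follow-up; controls were probe without protein and protein plus probe with vehicle; some compounds called inactive have numbers as strong as hits; many hits fall short of the cut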
Target sequence (P11940 whole entry, looked up): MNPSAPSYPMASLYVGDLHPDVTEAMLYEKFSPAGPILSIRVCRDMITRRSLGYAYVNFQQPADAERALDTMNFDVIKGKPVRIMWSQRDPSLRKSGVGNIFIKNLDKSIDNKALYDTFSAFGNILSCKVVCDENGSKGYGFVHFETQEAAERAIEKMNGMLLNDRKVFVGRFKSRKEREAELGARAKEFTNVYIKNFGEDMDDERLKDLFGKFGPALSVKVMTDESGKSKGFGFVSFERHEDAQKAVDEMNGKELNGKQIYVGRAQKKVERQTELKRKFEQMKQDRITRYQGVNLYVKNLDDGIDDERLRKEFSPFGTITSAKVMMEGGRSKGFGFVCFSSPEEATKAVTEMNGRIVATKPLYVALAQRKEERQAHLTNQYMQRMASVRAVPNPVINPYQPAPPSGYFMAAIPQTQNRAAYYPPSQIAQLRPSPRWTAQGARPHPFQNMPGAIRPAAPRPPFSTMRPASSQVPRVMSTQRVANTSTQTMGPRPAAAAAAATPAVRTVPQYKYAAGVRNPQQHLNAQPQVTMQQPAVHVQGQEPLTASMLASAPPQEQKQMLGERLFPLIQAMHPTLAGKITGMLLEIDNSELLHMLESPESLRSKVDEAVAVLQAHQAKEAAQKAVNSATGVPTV
eIF4H FP inh: inhibitors of RNA binding by human eIF4H; inhibition, % at 35 µM; 0.94% of 290,000 active; eIF4H fluorescence polarization binding assay; Q15056;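 active means 50% or more with normal probe brightness, or confirmed in later tests; about a fifth of its hits are not listed in these tables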;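 further: calls also rest on retests at 20 µM and on dose response follow-up; 0% = protein and probe with vehicle and 100% = probe without protein; strong numbers were not always called active; many hits fall short of the cut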
Rce1 inh: blocks yeast Ras-converting enzyme | 0.27% of 290,000 active | yeast membranes, quenched prenylated peptide cleavage fluorescence | calls only;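 active means fall in fluorescence gain of 50% or more versus controls, with final raw signal at or below 3038400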;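 further: plate controls were neutral control wells for no effect and wells lacking membranes for full effect; tested at 10 µM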
Target sequence (Q03530 whole entry, looked up): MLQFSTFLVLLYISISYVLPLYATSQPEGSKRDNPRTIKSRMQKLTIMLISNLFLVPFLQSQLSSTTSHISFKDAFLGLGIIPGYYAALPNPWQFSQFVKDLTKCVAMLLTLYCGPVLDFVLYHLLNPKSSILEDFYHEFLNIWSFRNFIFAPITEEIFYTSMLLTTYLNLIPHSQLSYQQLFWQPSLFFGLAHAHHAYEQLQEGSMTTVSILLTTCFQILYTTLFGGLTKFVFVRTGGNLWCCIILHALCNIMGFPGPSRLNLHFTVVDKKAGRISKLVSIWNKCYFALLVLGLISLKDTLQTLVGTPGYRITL
MT1-MMP act inh RFP: second read-out of MT1-MMP act inh, no call of its own (marks repeat the call); RFP signal change, %; measured here: RFP expression control read;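 0 = vehicle wells; hits needed this value within 50% of zero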
Numbers without * were called inactive; i = inactive; nt = no result given.

(1) COc1ccc(S(=O)(=O)N2Cc3ccccc3CC2C(=O)N2CCOCC2)cc1OC (stereo not drawn)
(2) COc1cccc(NC(=S)N(C)C2CCN(C)CC2)c1
(3) CC(=O)N1C(=O)N(C(C)=O)C2C1N(C(C)=O)C(=O)N2C(C)=O (stereo not drawn)
(4) COc1cc(CCN(C(=O)c2cc3ccccc3[nH]2)C(c2ccccn2)c2nc3ccccc3[nH]2)cc(OC)c1 (stereo not drawn)
(5) O=C(Nc1ccccc1Cl)Nc1ccccc1Cl

entry no.	1	2	3	4	5
HIV Env fusion	-4	-14	-66	1	-6
MT1-MMP act inh	3	-4	-3	-2	4
MT1-MMP act inh RFP	1	2	-1	2	-2
UUG fidelity	-6	-7	10	-12	-10
CSC inhib	-2	-16	-10	nt	1
PABP polyA inh	3	8	0	nt	5
eIF4H FP inh	-5	-2	8	nt	-1
Rce1 inh	i	i	i	nt	i

3 structures already listed, sorted by SMILES length, rising:
(5) O=C(Nc1ccccc1Cl)Nc1ccccc1Cl
(2) COc1cccc(NC(=S)N(C)C2CCN(C)CC2)c1
(1) COc1ccc(S(=O)(=O)N2Cc3ccccc3CC2C(=O)N2CCOCC2)cc1OC (stereo not drawn)

entry no.	5	2	1
HIV Env fusion	-6	-14	-4
MT1-MMP act inh	4	-4	3
MT1-MMP act inh RFP	-2	2	1
UUG fidelity	-10	-7	-6
CSC inhib	1	-16	-2
PABP polyA inh	5	8	3
eIF4H FP inh	-1	-2	-5
Rce1 inh	i	i	i

Next structures follow.
(6) CCCN1CCN(C(=O)C2CCN(c3nnc(C)c4c(C)n(-c5ccc(C)cc5)nc34)CC2)CC1
(7) O=C(CSc1ncnc2c1nnn2Cc1ccc(F)cc1)NC1CCCC1
(8) Nc1nc(-c2ccccc2)c(-c2ccc([N+](=O)[O-])cc2)s1
(9) COc1ccc(NC(=O)N2CCc3ccccc3C2)cc1
(10) COc1ccc(NC(=O)COc2ccccc2C(=O)NCC(c2ccccc2)N(C)C)cc1Cl (stereo not drawn)

entry no.	6	7	8	9	10
HIV Env fusion	-3	-11	39	-13	26
MT1-MMP act inh	-21	4	-30	0	-2
MT1-MMP act inh RFP	4	1	-23	0	1
UUG fidelity	-13	nt	-26	-15	21
CSC inhib	2	-6	38	-13	-3
PABP polyA inh	0	-14	2	-4	9
eIF4H FP inh	-6	-4	-9	-7	2
Rce1 inh	i	i	i	i	i

(11) COc1cccc(NC(=S)NCc2ccc3c(c2)cc(C)n3C)c1
(12) COC(=O)c1sccc1NC(=O)c1cccc(OC)c1
(13) Cc1ccc(-c2nnc(-c3ccccc3S(=O)(=O)Cc3ccc(Cl)cc3)o2)cc1
(14) CCOC(=O)C(Cc1ccccc1)C(=O)c1ccco1 (stereo not drawn)
(15) O=C(CSc1nnc(-c2ccc(Br)cc2)o1)Nc1cccc2ccccc12

entry no.	11	12	13	14	15
HIV Env fusion	-16	nt	nt	15	nt
MT1-MMP act inh	38*	-6	7	2	-5
MT1-MMP act inh RFP	44*	-2	4	6	-1
UUG fidelity	nt	nt	12	-26	-16
CSC inhib	nt	4	3	-4	nt
PABP polyA inh	-9	-6	-3	nt	-12
eIF4H FP inh	-9	-6	-11	nt	-1
Rce1 inh	i	i	i	i	i

(16) COc1cccc(/C=N/NC(=O)c2cc(C34CC5CC(CC(C5)C3)C4)[nH]n2)c1
(17) COc1ccc(CC(=O)Nc2c(C(=O)N3CCN(c4ccccc4)CC3)oc3ccccc23)cc1OC
(18) COc1ccccc1N(C)S(=O)(=O)c1ccc(C(=O)N(C)Cc2ccc(Cl)s2)cc1
(19) CCc1ccc2nc(SCC(=O)NCC3CCCO3)c(C#N)cc2c1 (stereo not drawn)
(20) CC(=O)N(Cc1cccnc1)Cc1cc2ccccc2[nH]c1=O

entry no.	16	17	18	19	20
HIV Env fusion	nt	11	19	-8	32
MT1-MMP act inh	-2	-3	6	-5	0
MT1-MMP act inh RFP	1	-8	-8	0	1
UUG fidelity	nt	-6	-8	nt	-18
CSC inhib	42	1	nt	-5	1
PABP polyA inh	4	6	nt	-7	-14
eIF4H FP inh	4	-2	nt	3	-4
Rce1 inh	i	i	nt	i	i

(21) Cc1occc1C(=O)Nc1cccc([N+](=O)[O-])c1C
(22) O=C(NCCNC1CCN(Cc2ccccc2)CC1)c1cccs1
(23) CC(C)c1ccc(C2OCC(C)([N+](=O)[O-])CO2)cc1 (stereo not drawn)
(24) O=C(COc1ccc(Br)cc1CO)N1CCCc2ccccc21
(25) CN(CC(=O)Nc1ccc(S(=O)(=O)N2CCCC2)cc1)CC(=O)Nc1cccc(F)c1

entry no.	21	22	23	24	25
HIV Env fusion	3	nt	-13	2	5
MT1-MMP act inh	1	nt	2	-3	6
MT1-MMP act inh RFP	1	nt	-1	-3	-7
UUG fidelity	nt	nt	-23	4	-10
CSC inhib	-6	-3	nt	-15	-6
PABP polyA inh	1	36	nt	3	-12
eIF4H FP inh	8	4	nt	2	7
Rce1 inh	i	i	nt	nt	i

(26) CCC/C(=N\NC(=O)c1ccc(OC)c(OC)c1)c1ccccc1
(27) CCOC(=O)C1CCN(C(=O)c2cccnc2Cl)CC1
(28) O=C(Nc1ccc(Cl)cc1C(=O)NCC1CCCO1)c1ccc(Cl)cc1Cl (stereo not drawn)
(29) Cc1cc(O)c(/C=N/Nc2cccc(Cl)c2)c(=O)o1
(30) COc1ccc(C(F)(F)F)cc1N/C=C\c1nnnn1-c1ccc(C)cc1

entry no.	26	27	28	29	30
HIV Env fusion	2	-7	-4	nt	12
MT1-MMP act inh	-4	2	3	-3	-1
MT1-MMP act inh RFP	1	3	-1	1	4
UUG fidelity	nt	-8	5	nt	nt
CSC inhib	-3	-2	6	12	8
PABP polyA inh	-2	12	-8	9	-2
eIF4H FP inh	-10	3	-4	0	-6
Rce1 inh	i	i	i	i	i

(31) Cc1ccccc1SCC(=O)Nc1cc(S(=O)(=O)N2CCOCC2)ccc1N1CCOCC1
(32) CCn1c(-c2ccc3ncccc3c2)n[nH]c1=S
(33) O=C(c1noc2c1CCc1ccccc1-2)N1CCOCC1
(34) CN(C)S(=O)(=O)N1CCN(c2ccccc2Cl)CC1
(35) COc1cccc(-c2cc(=O)[nH][nH]2)c1

entry no.	31	32	33	34	35
HIV Env fusion	7	7	-19	nt	5
MT1-MMP act inh	-5	-6	4	7	2
MT1-MMP act inh RFP	-5	-6	1	2	1
UUG fidelity	-17	-17	2	-9	nt
CSC inhib	-6	6	-5	-10	-15
PABP polyA inh	2	-2	3	4	9
eIF4H FP inh	2	-8	7	-7	-4
Rce1 inh	i	i	i	i	i

(36) CCCC(=O)Nc1nc2ccc(S(N)(=O)=O)cc2s1
(37) CCc1cc(=O)[nH]c(SCCC(F)=C(F)F)n1
(38) CCOC(=O)CSc1nnc(NCC(=O)OC)c(=O)[nH]1
(39) COc1ccccc1CNC(=O)COC(=O)c1cc(-c2ccco2)nc2ccccc12
(40) CC1=C(C(=O)Nc2ccccc2)C(c2ccc(C)o2)n2c(s/c(=C/c3ccccc3)c2=O)=N1 (stereo not drawn)

entry no.	36	37	38	39	40
HIV Env fusion	-12	-231	6	nt	nt
MT1-MMP act inh	-3	3	8	-18	-11
MT1-MMP act inh RFP	1	3	10	6	3
UUG fidelity	-23	-11	-20	-8	nt
CSC inhib	-17	-7	-8	-12	2
PABP polyA inh	-25	3	8	64*	0
eIF4H FP inh	-16	-6	-10	90*	6
Rce1 inh	i	i	i	i	i

(41) COc1ccc(CC(=O)N/N=C/c2c(C)n(C)c3ccccc23)cc1OC
(42) COCc1nnc(NC(=O)CCN2C(=O)c3ccccc3C2=O)s1
(43) CCOC(=O)Cc1csc(NC(=O)c2ccc(C)c(S(=O)(=O)N3CCOCC3)c2)n1
(44) CCSc1ccc([C@@H]2[C@@H]3C(=O)N(CC)C(=O)[C@@H]3[C@]3(C(=O)OC)CCCCN23)cc1OC
(45) O=C(Nc1ccccc1)/C(=C\c1ccco1)NC(=O)c1ccco1

entry no.	41	42	43	44	45
HIV Env fusion	29	-14	10	-5	-3
MT1-MMP act inh	2	0	7	3	-7
MT1-MMP act inh RFP	-10	-1	-1	-9	5
UUG fidelity	16	-6	-3	9	-10
CSC inhib	46	8	nt	0	-3
PABP polyA inh	3	-4	nt	nt	15
eIF4H FP inh	4	-4	nt	nt	26
Rce1 inh	i	i	nt	i	nt

(46) CC1(C(=O)NS(=O)(=O)c2ccc3ccccc3c2)CCN1C(=O)C1(c2ccc(Cl)cc2)CCC1 (stereo not drawn)
(47) COc1ccccc1N1CCN(C(=O)CN(C2CCCCC2)S(C)(=O)=O)CC1
(48) Cc1c(O)ccc(C(=O)CN2C(=O)c3ccccc3C2=O)c1O
(49) Cc1ccc(-n2cc(CN3CCCN(C=O)CC3)c(-c3ccc(F)cc3)n2)cc1
(50) O=C(Nc1cccc(NC(=O)c2cccc(F)c2)c1)c1ccccc1

entry no.	46	47	48	49	50
HIV Env fusion	11	2	-9	5	16
MT1-MMP act inh	1	-7	-2	-5	-1
MT1-MMP act inh RFP	0	-2	1	-2	0
UUG fidelity	-8	nt	-11	nt	-13
CSC inhib	nt	4	-14	15	19
PABP polyA inh	nt	-1	4	10	-10
eIF4H FP inh	nt	5	-8	-4	-17
Rce1 inh	nt	i	nt	i	i

(51) CSc1cccc(NS(=O)(=O)c2cc(Br)cnc2N)c1
(52) COc1ccc([C@@H](C)NC(=O)CCc2nnc(-c3cc(C)on3)o2)cc1
(53) COc1ccccc1NC(=S)N(c1ccccc1)C(C)C
(54) NC(=S)c1csc(CCNC(=O)c2ccccc2)n1
(55) CN1CCN(Cc2nc3c(c(=O)[nH]c(=O)n3C)n2Cc2c(F)cccc2Cl)CC1

entry no.	51	52	53	54	55
HIV Env fusion	-2	-2	-17	-12	-13
MT1-MMP act inh	1	6	5	0	-15
MT1-MMP act inh RFP	2	2	1	0	-5
UUG fidelity	-10	nt	-17	-33	-20
CSC inhib	-3	-6	3	nt	-13
PABP polyA inh	nt	-2	-7	nt	2
eIF4H FP inh	nt	3	2	nt	5
Rce1 inh	i	i	i	nt	i

(56) O=C(N/N=C/c1ccccc1O)c1cc[n+]([O-])cc1
(57) COc1ccc(CCC(=O)N2CCCC(Nc3ccccc3)C2)cc1OC (stereo not drawn)
(58) O=C(C1=C[C@@H](c2ccccc2)C[C@@H](OCc2ccc(CO)cc2)O1)N1CCCCCCC1
(59) S=C1NCN(Cc2ccco2)CN1c1ccccc1
(60) Cc1cccc(-n2cnc(C(=O)NC3CCCCCC3)c2)n1
(61) CCCCN1C(=O)NC(NC(=O)c2ccco2)(C(F)(F)F)C1=O (stereo not drawn)
(62) Cc1ccc(C)c(C(=O)CCC(=O)O)c1
(63) Cc1cc(C)n(NC(=S)NC2CCCCC2)c(=O)c1C#N

entry no.	56	57	58	59	60	61	62	63
HIV Env fusion	-30	1	-30	11	nt	-8	15	13
MT1-MMP act inh	5	4	-1	-1	6	-4	1	-3
MT1-MMP act inh RFP	1	0	-3	4	6	1	7	-7
UUG fidelity	-14	-6	14	nt	-18	-23	10	nt
CSC inhib	10	-2	1	-27	-7	0	-2	-11
PABP polyA inh	0	0	12	6	-6	5	-3	-3
eIF4H FP inh	2	2	-3	5	-5	10	3	-2
Rce1 inh	i	i	i	i	i	i	i	nt

Gathered by group, the compounds so far with a CF3 group.
(30) COc1ccc(C(F)(F)F)cc1N/C=C\c1nnnn1-c1ccc(C)cc1
(61) CCCCN1C(=O)NC(NC(=O)c2ccco2)(C(F)(F)F)C1=O (stereo not drawn)

entry no.	30	61
HIV Env fusion	12	-8
MT1-MMP act inh	-1	-4
MT1-MMP act inh RFP	4	1
UUG fidelity	nt	-23
CSC inhib	8	0
PABP polyA inh	-2	5
eIF4H FP inh	-6	10
Rce1 inh	i	i

Bioassay records deposited in PubChem by several laboratories.

Compounds as they come; overall some 3% were active at least once.
